Screening results: PubChem, National Center for Advancing Translational Sciences (NCATS)
PK Bst: alters activity of Bacillus stearothermophilus pyruvate kinase; AID 361; 1.2% of 51,000 active; partly purified Bacillus stearothermophilus pyruvate kinase, luminescence ATP production; ribose 5-phosphate activator present at AC10; Potency, µM; in the data active means potency below about 11 µM; inconclusive means mostly about 12 µM to 25 µM; inactive means weaker than that;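 the screen sought inhibitors and activators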;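 also: potency is read from the fitted curve at half-maximal effect; scaled between full activation by ribose 5 phosphate and full inhibition by luteolin; about four in five hits inhibit and the cells do not say which; series up to 57 µM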
TsaE inh: displaces an ADP probe from E. coli YjeE (TsaE) | P0AF67 | purified YjeE, fluorescence polarisation of a bound ADP probe | Potency, µM | 0.05% of 71,000 active; active = well fitted falling curve; inconclusive = weaker or top-dose-only fall, or a rising curve; inactive = flat or poorly fitted curve;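 also: top concentration of the series not given in the record; excess ADP was the control for the full effect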
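Purified YjeE (10 uM) with BODIPY Texas Red-labeled ADP probe (2 uM); compounds pin-transferred, 15 min at room temperature. Binding inhibition read as decreased fluorescence polarization; ADP titration as control.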
Starred values were filed as active, the others as inactive; i = inactive; ? = inconclusive; / = not tested or not shown. The list is partial; the hit share may differ from the screen's.

TsaE inh | PK Bst | Structure
i | >57 | CN(c1ccccc1C(N)=O)S(=O)(=O)c1ccccc1
i | >57 | CCn1c(=NC(=O)CSC(C)=O)sc2ccccc21
i | / | COc1ccc(C[C@@H]2C(=O)N[C@H](C)C(=O)N(C)[C@@H]3Cc4ccc(cc4)Oc4cc(ccc4O)C[C@H](C(=O)N[C@@H](C)C(=O)N[C@H](C)C(=O)N2C)N(C)C3=O)cc1
i | / | O=C(Nc1ccc2c(c1)oc1ccccc12)C1CC1
i | >57 | CCCc1nc(SCC(=O)N2CCCC2)c2ccccc2n1
i | / | N#Cc1ccc(CN2CCCC3(CCN(C(=O)c4ccncc4)CC3)C2)cc1
i | >57 | COc1ccc(CNc2nc3ccccc3n2CCN2CCCCC2)c(OC)c1
i | >57 | CC(C)c1nc(=S)n(-c2ccccc2)[nH]1
i | / | COc1ccccc1C(=O)OCn1nnc2ccccc2c1=O
i | 3.55* | CCc1ccc2oc(-c3cc(N)cc(C)c3O)nc2c1
i | / | O=C(O)c1cc(C(=O)O)cc(N2C(=O)c3ccccc3C2=O)c1
i | >57 | O=C(CSCc1ccccn1)Nc1ccccc1
i | / | O=C(Nc1ccc2ccccc2c1)c1cccnc1
i | / | Cn1c(=O)c2c(SCc3ccccc3)nc(-c3ccco3)nc2n(C)c1=O
i | i | OCC#CCSc1nnc(-c2ccc(Br)cc2)o1
i | >57 | Cc1ccc(CNC(=O)CCNC(=O)Cn2ccc3ccccc3c2=O)o1
i | >57 | COc1ccc(N2CCN(CCNC(=O)c3c(C)cc(=O)oc3C)CC2)cc1
i | >57 | Cc1cc(C)c2c(=O)[nH]n(C3CC(C)N(C)CC3C)c2n1 (configuration not stated)
i | >57 | CCN(CC)C(=O)CSc1nnc([C@@H](NC(=O)OC(C)(C)C)C(C)C)o1
i | / | Cn1cnnc1SCC(=O)Nc1ccccc1
i | >57 | CC(=O)Nc1c(C(=O)N2CCOCC2)sc2nc3c(cc12)COC(C)(C)C3
i | >57 | COc1ccc(OC)c(NC(=O)C2C3CC4OC(=O)C2C4C3)c1 (configuration not stated)
i | >57 | Cc1csc(NC(=O)CSc2nnc(C)s2)n1
i | >57 | O=C(NCc1cccs1)C1CCCN(S(=O)(=O)c2ccc3c(c2)OCO3)C1 (configuration not stated)
i | / | CS(=O)(=O)N1CCC2(CC1)CN(C(c1ccccc1)c1ccccc1)C2
i | >57 | COC(=O)CSc1nnc(CNc2ccc(F)cc2)o1
i | >57 | Cc1cccc(N(C(=O)CCC(=O)Nc2cc(C)on2)C(C(=O)NC2CCCC2)c2ccncc2)c1 (configuration not stated)
i | >57 | COc1ccc(-n2c(SCc3nnc(-c4ccccc4)o3)nnc2-c2ccccc2)cc1
i | / | OCCN(Cc1ccccc1)Cc1ccc(F)c(F)c1
i | >57 | c1csc(-c2csc3ncnc(NCCCN4CCOCC4)c23)c1
i | / | CC(C)NC(=O)C1CCCN(c2nnc(-n3cccc3)s2)C1 (configuration not stated)
i | / | O=C(NCCN1CCN(C(=O)Nc2ccccc2)CC1)Nc1ccccc1
i | >57 | O=C(c1ccco1)N1CCN(S(=O)(=O)c2ccc(Oc3ccccc3)cc2)CC1
i | >57 | Nc1ccccc1NC(=O)c1ccccc1
i | >57 | O=C(O)CCc1ccc(-c2ccccc2)o1
i | >57 | NC(=O)C1CCCN(C(=O)c2ccc(Cl)cc2)C1 (configuration not stated)
i | >57 | Cc1cc(NC(=O)COC(=O)C(Cc2ccccc2)NC(=O)c2ccco2)no1 (configuration not stated)
i | >57 | CCNC(=O)CC1C(=O)N(c2ccc(F)cc2)C(=O)N1Cc1ccccn1 (configuration not stated)
i | / | COc1ccc2c(c1)c1c3n2CCN(C)C3=NCC1
i | / | Cc1nn(C)c(C)c1NS(=O)(=O)c1ccccc1

Three entries out of the list, arranged by SMILES length, descending:
TsaE inh | PK Bst | Structure
i | >57 | O=C(c1ccco1)N1CCN(S(=O)(=O)c2ccc(Oc3ccccc3)cc2)CC1
i | >57 | O=C(O)CCc1ccc(-c2ccccc2)o1
i | >57 | Nc1ccccc1NC(=O)c1ccccc1

Following part
TsaE inh | PK Bst | Structure
i | / | O=C(O)[C@@H]1CCN(Cc2oc(CO)cc(=O)c2O)C1
i | >57 | O=C(NCC(c1cccnc1)N1CCOCC1)c1cccc(Cl)c1 (configuration not stated)
i | / | Cc1ccc(C(=O)CSc2n[nH]c(C)n2)cc1
i | / | CN(C)CCNC(=O)c1cc2c(=O)n(C)c3ccccc3c2n1C
i | >57 | O=C(c1ccco1)N1CCN(c2nc(C3CC3)nc3sc4c(c23)CCCC4)CC1
i | / | O=C(Cn1cnc2c(nnn2Cc2ccccc2)c1=O)c1ccccc1
i | >57 | CCOC(=O)Cc1nnc2c(Nc3ccc(Cl)cc3)nc3nonc3n12
i | >57 | O=C(NCc1ccncc1)c1c(F)c(F)c(F)c(F)c1F
i | >57 | O=C(NCc1ccco1)C1CCN(S(=O)(=O)c2ccc(-n3cnnn3)cc2)CC1
i | / | Cc1cc(CC(=O)O)n(C)c1C(=O)c1ccc(Cl)cc1
i | >57 | Cc1nc2ccc(NC(=O)NCc3ccco3)cc2s1
i | >57 | CCOC(=O)COc1ccc2c(c1)C(=O)CC(C)(c1cccnc1)O2 (configuration not stated)
i | / | Cc1cccc(NC(=O)C2CCN(S(=O)(=O)c3cccc4cccnc34)CC2)n1
i | / | COC(=O)C(C)NC(=O)C1CCCN1S(=O)(=O)c1cc(C)c(Cl)cc1C (configuration not stated)
i | >57 | CCOC(=O)c1cc(C#N)c(SCc2ccc(C#N)cc2)nc1C
i | >57 | COc1ccc(N2CCN(Cc3cc(=O)oc4ccc5ccccc5c34)CC2)cc1
i | / | N=C(CC(=O)Nc1ccccn1)c1ccccc1
/ | >25.6 | CCOC(=O)CNS(=O)(=O)c1cc(-c2nn(C)c(=O)c3ccccc23)ccc1C
i | >57 | Cc1ccc(C(=O)CSc2nnc(CNc3ccc(C)cc3C)o2)cc1
i | >57 | CCOC(=O)C1=C(NC(=O)c2ccc(Br)o2)Nc2ccccc2N=C1
i | / | COc1ccc(-c2cc(C(F)(F)F)n3nc(C)cc3n2)cc1
i | >57 | CCOC(=O)C1=C(C)NC(=O)NC1c1c(C)nn(-c2ccccc2)c1Cl (configuration not stated)
i | / | CC1=CCC2(CO)COC(c3ccccc3O)C1C2 (configuration not stated)
i | >57 | CCCC(c1nnnn1CC1CCCO1)N1CCN(c2cc(Cl)ccc2C)CC1 (configuration not stated)
i | >57 | Cc1cc(C)cc(OCC(=O)Nc2cccc(-c3nnc(-c4ccco4)o3)c2)c1
i | / | Nc1nc2n(n1)C(c1c(F)cccc1Cl)CC(c1ccc(F)cc1)N2 (configuration not stated)
i | >57 | CCCCNc1nc2c(c(=O)[nH]c(=O)n2C)n1CCOc1ccccc1
i | / | Cc1nn(C)cc1CN(C)C(=O)c1sc2cccc(Cl)c2c1Cl
i | / | CC(C)CCNc1ncnc2[nH]ncc12
i | / | COC(=O)[C@@]1(Cc2ccc(F)cc2)[C@H]2c3cc(C(=O)N4CCCC4)n(CCc4c[nH]c5ccccc45)c3C[C@H]2CN1C(=O)c1ccccc1
i | >57 | N#Cc1c(N)sc2c1CCN(C(=O)OCc1ccccc1)C2
i | >57 | CCOC(=O)c1c(C)[nH]c(C)c1C(=O)COC(=O)CNC(=O)c1ccc(OCC)cc1

2 entries from above, with values under each structure:
Every second line gives: TsaE inh | PK Bst
Cc1nn(C)cc1CN(C)C(=O)c1sc2cccc(Cl)c2c1Cl
    i | /
CCCCNc1nc2c(c(=O)[nH]c(=O)n2C)n1CCOc1ccccc1
    i | >57

Complete entries, looked up by structure. Order of values: TsaE inh, PK Bst
Nc1nc2n(n1)C(c1c(F)cccc1Cl)CC(c1ccc(F)cc1)N2 (configuration not stated) in the list: i, /
CC(C)CCNc1ncnc2[nH]ncc12 in the list: i, /
N#Cc1c(N)sc2c1CCN(C(=O)OCc1ccccc1)C2 in the list: i, >57

The list continues.
TsaE inh | PK Bst | Structure
i | ? | CCOc1ccc(-c2nnc(N(CC)C(=O)C3CCC3)s2)cc1
i | >57 | CC(=O)c1nnn(-c2nc(N3CCCC3)nc(N(c3ccccc3)c3ccccc3)n2)c1C
i | >57 | Cc1noc(C)c1S(=O)(=O)N1CCC(C(=O)Nc2ccc(OC(F)(F)F)cc2)CC1
i | / | CC(C)c1cccc2nc3c(c(C(C)(C)C)c12)Cn1c-3cccc1=O
i | >57 | CCOc1ccccc1C(=O)Nc1ccccc1C(N)=O
i | i | O=C(OCc1cc(-c2ccccc2)no1)c1ccc2ccccc2n1
i | / | CNC(=O)[C@H](C)/C=C(\c1cccnc1)C(NC(=O)OCc1ccccc1)c1ccc(C(=O)OC)cc1 (some centres not stated)
i | >57 | CCN1CCN(c2ncc(C(=O)N3CCN(c4ccccc4OC)CC3)c3ccccc23)CC1
i | >57 | CS(=O)(=O)c1ccc(-c2nn[nH]n2)cc1
i | >57 | CS(=O)CSc1nc2c(cc1C#N)CCCC2 (configuration not stated)
i | / | Cc1ccc(C(c2sc3ncnn3c2O)N2CCCCC2)cc1 (configuration not stated)
i | / | COCCNc1nc(C)nc2c1nc(-c1ccccc1)n2CCN(C)C
i | >57 | O=C(NC1(O)C(=O)c2ccccc2C1=O)c1ccccc1
i | >57 | O=C(CN(CC1CCCO1)C(=O)CCC(=O)Nc1nccs1)NCC1CCCO1 (configuration not stated)
i | / | COc1cc(OC)cc(C(=O)NCCn2ccc3ccccc32)c1
i | >57 | Cc1cc(C(=O)CSc2nnc(-c3cccs3)n2Cc2ccccc2)c(C)n1C
i | >11.4 | Cc1ccc(-c2noc(CCC(=O)N3CCCc4ccccc43)n2)cc1
i | >57 | O=C1CN(S(=O)(=O)c2ccccc2)CC(=O)N1CCc1ccccc1
i | / | CCOc1ccc(NC(=O)C2C3C=CC4(CN(C(C(=O)OC)C(C)C)C(=O)C24)O3)cc1 (configuration not stated)
i | >57 | O=C(NCc1ccccc1)c1cc(-c2ccco2)on1
i | >57 | CCOc1ccc(N(CC(=O)NC2CCCC2)C(=O)CCC(=O)Nc2ccccn2)cc1
i | / | Cc1noc(C)c1S(=O)(=O)N1CCCC(C(=O)N2CCN(C3CCCCC3)CC2)C1 (configuration not stated)
i | / | CN(Cc1ccco1)c1ncnc2ccc(-c3ccoc3)cc12
i | >57 | Cc1ccccc1N(CC(=O)NCC1CCCO1)C(=O)C1(C)CC(=O)N=C2C=CC=CN21 (configuration not stated)
i | / | CCOC(=O)c1ccc(NC(=O)C(C)N2C(=O)c3ccccc3C2=O)cc1 (configuration not stated)
i | / | CSc1ccccc1NC(=O)c1cnc2scc(C)n2c1=O
i | >57 | CCOC(=O)CSc1nc2ccccc2n1CC(=O)N(C(C)C)C(C)C
i | / | Cc1ccc(-c2nnc3n2N=C(c2ccccc2)CS3)cc1
i | / | Cc1nc(N=Nc2ccc(C(=O)O)cc2)c(COP(=O)(O)O)c(C=O)c1O
/ | >25.6 | O=C(O)CCc1nn2cc(-c3ccccc3)nc2[nH]c1=O
i | / | CN1CCN(C(=O)c2ccc3ccccc3c2)CC1
/ | >25.6 | CN(C)c1ccc(C=NCCC2(O)CCOC(C)(C)C2)cc1 (configuration not stated)
i | >57 | Cn1c(=O)c2c(nc(NCc3ccccc3)n2CCCc2ccccc2)n(C)c1=O
i | >57 | Cc1cc(-c2nnc3n2CCCCC3)c(C)n1-c1ccccc1
i | >57 | COc1ccc(CCn2c(N)c(S(=O)(=O)c3cccs3)c3nc4ccccc4nc32)cc1OC
i | / | COCCNc1nc(-c2ccccc2C)nc2ccccc12
i | >57 | CCOCCCNC(=O)C1CCN(C(=O)Nc2ccc(C)cc2)CC1
i | >57 | O=C(CN1C(=O)c2ccccc2C1=O)Nc1ccc(N2CCOCC2)cc1
i | / | c1nc(N2CCN(Cc3ccc4c(c3)OCO4)CC2)c2[nH]cnc2n1
i | >57 | CCOC(=O)C1CCCN(C(=O)C2CCN(S(=O)(=O)c3cccs3)CC2)C1 (configuration not stated)

Records listed so far that bear a hit mark in PK Bst.
TsaE inh | PK Bst | Structure
i | 3.55* | CCc1ccc2oc(-c3cc(N)cc(C)c3O)nc2c1

(more compounds)
TsaE inh | PK Bst | Structure
i | >57 | Cc1cc(C(=O)Nc2ccc(S(=O)(=O)Nc3onc(C)c3C)cc2)cs1
i | >57 | CCn1c(SCC(=O)NCc2cccs2)nnc1-c1ccco1
i | >57 | COc1cccc(NC(=O)NCc2cccn2C)c1
i | >57 | O=C(OCC1COc2ccccc2O1)c1c(F)cccc1F (configuration not stated)
i | >57 | CCOc1ccccc1-n1nnnc1SCC(=O)Nc1cc2oc3ccccc3c2cc1OC
i | >57 | O=C1NCCN1CCNS(=O)(=O)c1ccc2ccccc2c1
i | >57 | CCCCN(C(=O)c1c(C)[nH]c(C(=O)OCC)c1C)c1ccccc1
i | / | COCCn1c(=O)cnc2cnc(Oc3ccc(OC)cc3)nc21
/ | >25.6 | N/C(=N\S(=O)(=O)c1ccc(Cl)s1)c1ccccc1
i | / | CCN(CC)S(=O)(=O)c1ccc(-c2nnc3sc4cccc(C)c4n23)cc1
i | >57 | Cc1ccsc1C(C(=O)NC1CCCCC1)N(C(=O)c1csnn1)C1CC1 (configuration not stated)
i | / | COCCCN(C(C)=O)c1nc(-c2ccccc2)cs1
i | >57 | Cc1ccccc1Cn1c(-c2cncs2)nc2ccccc21
i | / | Cc1cc(=O)oc2cc(OCC#N)ccc12
i | >57 | CN1CCN(c2ccccc2NC(=O)c2ccc(Br)o2)CC1
i | / | Cc1ccc(OCCCCn2ccnc2)c(Cl)c1
i | >57 | Cc1nc2ccccc2n1CCc1nc2c3ccccc3nc(SCC(=O)NCc3ccco3)n2n1
